Screens deposited in PubChem BioAssay by National Center for Advancing Translational Sciences (NCATS).
FEN1 inh = blocks human flap endonuclease 1. P39748. Recombinant FEN1 flap cleavage, fluorescence, 15 min. Potency, µM (top dose mostly 114 µM), inactives show top-dose activity change, negative = inhibition, actives largely listed as inhibitors. 390,000 tested, 0.35% active. AID 588795; also: nearly all actives have a fitted effect of over 65% in size
Target sequence (P39748 whole entry, looked up): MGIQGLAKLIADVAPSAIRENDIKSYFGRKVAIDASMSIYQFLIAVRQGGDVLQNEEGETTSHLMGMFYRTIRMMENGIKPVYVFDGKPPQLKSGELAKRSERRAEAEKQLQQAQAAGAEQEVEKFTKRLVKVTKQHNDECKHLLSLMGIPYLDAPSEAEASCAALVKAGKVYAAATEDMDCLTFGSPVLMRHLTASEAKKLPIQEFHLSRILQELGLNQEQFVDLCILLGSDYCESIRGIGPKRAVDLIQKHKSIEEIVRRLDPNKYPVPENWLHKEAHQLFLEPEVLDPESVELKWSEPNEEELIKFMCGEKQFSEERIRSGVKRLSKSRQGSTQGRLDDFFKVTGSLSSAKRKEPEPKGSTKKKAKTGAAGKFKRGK
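Steps: FEN1 (10 nM) dispensed; compound added by pin tool; 15 min at room temperature; substrate added to 50 nM final; reads at 0 min and 15 min; data normalized and fitted (four-parameter Hill).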
N370S GC = inhibits or activates N370S mutant glucocerebrosidase | N370S GC spleen homogenate, 4MU-glucoside fluorescence | Potency, µM (top dose mostly 59.4 µM), without a hit: at the highest dose activity change, negative = inhibition, usual class: inhibitors | 330,000 tested, 0.092% active;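 also: 0% = full enzyme activity and -100% = no enzyme basal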
The depositor's hits bear a star; u = inconclusive; x = no result given; & = joins results of further samples; [ ] = remark or other dose. Calls follow the shape of the dose curve; as a rule, active = well fitted curve in the direction sought with a large enough effect; inconclusive = small, poorly fitted or top-dose-only effect, or another doubt; inactive = no such curve, though single readings can be large; an effect the other way counts as inactive or inconclusive. Unless noted, % is scaled to controls: 0 for no effect and ±100 for the full control effect; potency is read from the fitted curve at half-maximal effect. Not all compounds are listed; most or all hits stand in other tables.

no.	SMILES	N370S GC	FEN1 inh
1	COc1ccccc1CNC(=O)CSc1ncc(S(=O)(=O)c2ccc(C)c(Cl)c2)c(=O)[nH]1	x	4%
2	C[C@H](CO)N1C[C@H](C)[C@@H](CN(C)Cc2ccncc2)Oc2c(NC(=O)C3CCCCC3)cccc2C1=O	x	-7%
3	O=C(Nc1nnc(Cc2ccc(Cl)cc2)s1)c1ccco1	4%	-2%
4	NS(=O)(=O)c1ccc(NC(=O)c2ccc3c(c2)CCCC3)cc1	-15%	15%
5	O=S(=O)(Cc1ccccc1)N1CCC(c2nc(-c3cccs3)no2)CC1	-7%	-16%
6	CC1=NN(c2ccccc2C(=O)O)C(=O)C1N=Nc1ccccc1 (stereo not given)	1%	u
7	Cc1ccc(-c2csc3ncnc(SCC(=O)NCC4CCCO4)c23)cc1 (stereo not given)	x	-5%
8	COC(=O)c1cc(-c2cccs2)[nH]n1	-2%	6%
9	CCOC(=O)Oc1ccc2c(=O)c(Oc3cc(C)cc(C)c3)coc2c1	-3%	-1%
10	O=C(N=Nc1c(O)[nH]c2ccc([N+](=O)[O-])cc12)c1ccccc1Cl	0%	u
11	CC(C(=O)N=c1sc2ccccc2n1C)N1C(=O)C2CC=CCC2C1=O (stereo not given)	-2%	0%
12	C=CCn1cc(/C=N/Nc2nc3ccccc3[nH]2)c2ccccc21	u	-25%
13	O=C(Nc1ccc(Cc2ccncc2)cc1)C1CCC(N2C(=O)C3CCCCC3C2=O)CC1 (stereo not given)	4%	-1%
14	N#CCCN(Cc1ccccc1)C(=O)Nc1ccccc1	-10%	-10%
15	COc1ccc(C(CC(=O)O)NC(=O)COc2ccccc2)cc1 (stereo not given)	1%	3%
16	Cc1nc(N2CCN(c3ccc(Cl)cc3)CC2)[nH]c(=O)c1C	-4%	-1%
17	Cc1cc(C(=O)OCC(=O)N(CC(C)C)c2c(N)n(Cc3ccccc3)c(=O)[nH]c2=O)c2ccccc2n1	-3%	5%
18	Cc1ccnc(NS(=O)(=O)c2ccc(NC(=O)c3cc(-c4ccccc4)nc4ccccc34)cc2)n1	-1%	-5%
19	CC(C)CCNC(=O)c1ccccc1NC(=O)C1=CSCCO1	22%	-8%
20	CC1(C)NC(=O)N(CC(O)COc2ccc(-c3ccc(C#N)cc3)cc2)C1=O (stereo not given)	10%	-5%
21	CN(CC(=O)Nc1ccc(F)cc1)C(=O)CN1C(=O)NC2(CCCC2)C1=O	-6%	4%
22	Cc1cc(C(=O)NC2=NCCS2)c2ccccc2n1	-2%	-5%
23	Cc1c(NC(=O)COC(=O)C(c2ccc(Cl)cc2)C(C)C)c(=O)n(-c2ccccc2)n1C (stereo not given)	7%	-8%
24	COc1ccccc1OC(C)C(=O)Nc1nc(-c2ccc(S(=O)(=O)N3CCOCC3)cc2)cs1 (stereo not given)	0%	3%
25	CCN1CCN(C(c2cccs2)C(C)NS(=O)(=O)c2ccc(Br)cc2)CC1 (stereo not given)	-10%	8%
26	COc1ccc(-c2oc(=O)c3cc(OC)c(OC)cc3c2C#CCCCO)cc1	x	3%
27	COc1ncc2nc(CCc3ccccc3)c(=O)n(C)c2n1	12%	x
28	Cc1cc(C)c2nc(NC(=O)C3CSC4(C)CCC(=O)N34)sc2c1 (stereo not given)	x	44%[activator]
29	Cn1c(=O)c(-c2cccs2)nc2cnc(N3CCOCC3)nc21	-2%	x
30	CCOc1cc(C(=O)NCCOC)cc(OCC)c1OCC	10%	5%
31	C=CCc1cc(Cl)ccc1OCCNCCCOC	0%	3%
32	O=C(CSc1nnc(-c2ccc(F)cc2)n1CC1CCCO1)NCc1ccco1 (stereo not given)	0%	-1%
33	COc1ccc(N(C)S(=O)(=O)c2cccc(C(=O)OCC(=O)Nc3sc4c(c3C#N)CCCCC4)c2)cc1	0%	-4%
34	O=C(CSCc1ccccc1)N/N=C/c1ccccc1OCc1ccccc1	15%	-1%
35	COC(=O)[C@@H](NC(=O)O[C@@H]1C(=O)c2cc(Br)ccc2O[C@H]1c1cccc(OC)c1)C(C)C	6%&-12%	x
36	O=C(Nc1ccccc1CC[N+](=O)[O-])N1CCN(c2ccccc2)CC1	-2%	-23%
37	N#C/C(=C\c1cccc(O)c1)C(=O)Nc1ccc2c(c1)OCCO2	1%	-3%
38	COCCNC(=O)c1cc2nc3c(c(C(F)(F)F)n2n1)CCc1ccccc1-3	u	1%
39	O=C(C#Cc1ccccc1)NCc1ccccc1F	2%	13%
40	CN1CCC(CNC(=O)Nc2csc3ccccc23)CC1	0%	-4%
41	COc1ccc(OCCCC(=O)OC(C)C(=O)Nc2ccc(S(N)(=O)=O)cc2)cc1 (stereo not given)	-1%	-3%
42	C/C(N)=C(/C#N)C(=O)CSc1nc(-c2ccccc2)c(-c2ccccc2)o1	-1%	-9%
43	COc1ccc(NC(=O)c2ccc3c(c2)NC(=O)CO3)cc1OC	-2%	-9%
44	COCC(=O)Nc1ccc(Br)cc1	-7%	0%
45	CC(=O)Nc1cccc(NC(=O)c2c(-c3c(Cl)cccc3Cl)noc2C)c1	18%	-13%
46	CCN(Cc1ccccc1)S(=O)(=O)c1ccc(C(=O)N2CCN(c3nc4ccccc4s3)CC2)cc1	16%	0%
47	CN1CCN(c2ccccc2NC(=O)c2cc3c(s2)-c2ccccc2OC3)CC1	u	-23%
48	CCOCCCNC(=O)c1cn(CC)c2ccc(S(=O)(=O)N(C)C3CCCCC3)cc2c1=O	9%	-4%
49	CCOc1ccc(C2C=C(c3cccc(OC)c3)Nc3nnnn32)cc1 (stereo not given)	x	-7%
50	Cc1cc(C)c(C(=O)OCC(=O)Nc2cccc(S(=O)(=O)N3CCCCC3)c2)c(C)c1	-3%	0%
51	CCOC(=O)C1CCN(c2ncnc3c2nc2n3CCCCC2)CC1	x	-1%
52	O=C(CCCn1c(=O)c2cccn2c2ccccc21)NCc1ccccc1Br	x	8%
53	O=C1CCCN2N=C(SCC(=O)Nc3cccc(Cl)c3)SC2=N1	1%	-12%
54	CCOC(=O)c1c(CSCc2ccccc2)oc2ccc(O)c(CN(C)C)c12	-19%	7%
55	CCC(=NCCc1ccc(OC)c(OC)c1)c1ccccc1O	-8%	15%
56	COc1ccc(NC(=O)c2ccc(-n3cnnn3)cc2)c([N+](=O)[O-])c1	-17%	15%
57	CC(C)(C)c1ccc(S(=O)(=O)N2CCc3nc4ccccc4c(C(=O)O)c3C2)cc1	4%	-7%
58	CN(C)S(=O)(=O)c1ccc(C(=O)OCCn2cnc3c2c(=O)n(C)c(=O)n3C)cc1	-4%	-20%
59	COc1ccc(NC(=O)c2cccs2)cc1OC	-16%	-1%
60	O=C(NCC1CCCO1)C(C(=O)c1ccccc1)n1ccccc1=O (stereo not given)	6%	-10%

Carrying on:
no.	SMILES	N370S GC	FEN1 inh
61	CCOc1ccc(C(=O)NCC2CCCN2S(=O)(=O)c2cccs2)cc1 (stereo not given)	1%	3%
62	CC1CCCCN1CCCNC(=O)c1sc2ncccc2c1-n1cccc1 (stereo not given)	x	-8%
63	Fc1ccc(C(c2nnnn2Cc2cccs2)N2CCN(C3CCCC3)CC2)cc1 (stereo not given)	-10%	0%
64	O=C(c1cc(Br)c(Br)s1)N1CCN(c2ccccn2)CC1	-22%	-2%
65	Cc1c(NC(=O)Cn2nc(C(F)(F)F)c3c2CCCC3)c(=O)n(-c2ccccc2)n1C	-2%	0%
66	Cc1ccc(N(C(=O)c2csnn2)C(C(=O)NC2CCCCC2)c2ccncc2)cc1 (stereo not given)	-3%	0%
67	CN(CCOc1ccccc1)CC(=O)Nc1ccc([N+](=O)[O-])cc1Cl	-12%	-13%
68	Cc1ccccc1NC(=O)n1ncc2cc(Cl)ccc21	-2%	-1%
69	O=C(O)c1ccc(N2CCCCS2(=O)=O)cc1	1%	0%
70	N=c1n(Cc2ccccc2Cl)c2ccccc2n1CC(O)c1ccco1 (stereo not given)	-10%	9%
71	Cc1ccnc(NS(=O)(=O)c2ccc(NC(=O)c3nc(SC(C)C)ncc3Cl)cc2)n1	x	-7%
72	COc1ccc(Cc2nc3ccc(C(=O)N4C[C@@H](C)O[C@@H](C)C4)cc3o2)cc1OC	-3%	-6%
73	CC(C)(C)c1ccc(OC(=O)CN2C(=O)C3C4CCC(C4)C3C2=O)cc1 (stereo not given)	-2%	-4%
74	CC(C)NC(=O)Nc1cccc2c1O[C@H](CN(C)C(=O)NC1CCCCC1)[C@H](C)CN([C@H](C)CO)C2=O	x	10%
75	CC(C)CNC(=O)Cn1c(=O)c2c(ncn2CC(C)C)n(Cc2ccccc2)c1=O	8%	5%

The closing 5 records of the part above come first, to join the parts.
no.	SMILES	N370S GC	FEN1 inh
71	Cc1ccnc(NS(=O)(=O)c2ccc(NC(=O)c3nc(SC(C)C)ncc3Cl)cc2)n1	x	-7%
72	COc1ccc(Cc2nc3ccc(C(=O)N4C[C@@H](C)O[C@@H](C)C4)cc3o2)cc1OC	-3%	-6%
73	CC(C)(C)c1ccc(OC(=O)CN2C(=O)C3C4CCC(C4)C3C2=O)cc1 (stereo not given)	-2%	-4%
74	CC(C)NC(=O)Nc1cccc2c1O[C@H](CN(C)C(=O)NC1CCCCC1)[C@H](C)CN([C@H](C)CO)C2=O	x	10%
75	CC(C)CNC(=O)Cn1c(=O)c2c(ncn2CC(C)C)n(Cc2ccccc2)c1=O	8%	5%
76	Cc1ccc(-c2onc3ccc(Cl)cc23)cc1	4%	-2%
77	COC(=O)c1ccccc1NC(=S)NC(=O)C1CC1	3%	4%
78	COc1ccccc1/C=C/C(=O)NCC(=O)N/N=C/c1ccccc1	11%	-15%
79	COC(=O)NCc1cccc(CNC(=O)OC)c1	-17%	0%
80	c1ccc(Nc2cccc(Nc3ccccc3)c2)cc1	1%	u
81	O=C(CNc1cccc2ccccc12)N/N=C/C=C/c1ccco1	-3%	3%
82	CC(C)(C)C(=O)NNC(=O)c1cc2sccc2s1	7%	-12%
83	Cc1nn(-c2ccccc2)c(N)c1C(O)(C(F)(F)F)C(F)(F)F	8%	0%
84	Cc1cccc(NC(=O)CN2CCN(C(=O)CNC(=O)Cc3cccc4ccccc34)CC2)c1C	x	-18%
85	COc1ccc(C/C(N)=N/OC(=O)CCc2ccccc2)cc1	-6%	5%
86	CCCCCCCC[n+]1cccc(C(=O)N(CC)CC)c1	5%	-3%
87	O=C(O)c1ccc(CSc2nnc(SCc3ccccc3)s2)cc1	6%	-8%
88	COc1ccc(Sc2nc(-c3ccccn3)ncc2OC)cc1	4%	3%
89	Cc1cc(=O)n2nc(N3CCC(C(=O)NCc4ccc(F)cc4)CC3)sc2n1	-5%	-7%&-7%
90	CC(C(=O)O)c1ccc(N2Cc3ccccc3C2=O)cc1 (stereo not given)	-1%&2%	-6%
91	COc1ccc(NC(=O)c2ccccc2NC(=O)CN2CCCCCC2)cc1	x	-12%
92	CCOC(=O)N1CCC(NC(=O)C2CCN(S(=O)(=O)c3ccc4c(c3)oc(=O)n4C)CC2)CC1	-4%	-27%
93	COC(=O)c1ccccc1NC(=O)COCc1cc(-c2cccs2)on1	x	-7%
94	Cc1cc(NC(=O)CCC(=O)N(C2CC2)C2(C(=O)NC3CCCC3)CCC(C)CC2)no1 (stereo not given)	-2%	1%
95	O=S(=O)(c1cccc(-c2n[nH]c(=S)n2Cc2ccccc2)c1)N1CCOCC1	-14%	-18%
96	CC(C)(C)c1ccc(OCC(=O)N2CCN(C=O)CC2)cc1	-1%	-5%
97	COc1ccccc1/C(C)=N/NC(=O)c1nnn(-c2nonc2N)c1C(C)C	4%	-15%
98	O=C(NNC1=NS(=O)(=O)c2ccccc21)C1CC(=O)N(c2ccccc2)C1 (stereo not given)	4%	3%
99	Fc1ccc(Oc2ncccn2)c(F)c1	-2%	0%
100	Cc1ccc(CNC(=O)C2CCC(CNS(=O)(=O)c3ccc4c(c3)CCCC(=O)N4)CC2)cc1 (stereo not given)	x	1%
101	O=C(Cc1ccc(S(=O)(=O)N2CCCCC2)s1)Nc1cccc2ccccc12	6%	4%
102	CCCCC1CCC(C(=O)N(CCOC)c2c(N)n(CCCC)c(=O)[nH]c2=O)CC1 (stereo not given)	1%	7%
103	O=C(Nc1ccccc1)N1CC[C@@]2(CCCN(C(=O)c3cccc(F)c3)C2)C1	9%	x
104	Cc1c(C(=O)NCCCN2CCOCC2)oc2ccc(S(=O)(=O)N3CCOCC3)cc12	6%	-2%
105	CNC(=O)c1c(NC(=O)CCS(=O)(=O)c2ccccc2)sc(C)c1C	4%	-5%

Entries from the list above containing a CF3 group, in the order listed:
no.	SMILES	N370S GC	FEN1 inh
38	COCCNC(=O)c1cc2nc3c(c(C(F)(F)F)n2n1)CCc1ccccc1-3	u	1%
65	Cc1c(NC(=O)Cn2nc(C(F)(F)F)c3c2CCCC3)c(=O)n(-c2ccccc2)n1C	-2%	0%
83	Cc1nn(-c2ccccc2)c(N)c1C(O)(C(F)(F)F)C(F)(F)F	8%	0%

Additional entries
no.	SMILES	N370S GC	FEN1 inh
106	Cc1ccc(S(=O)(=O)N(CC(=O)N2CCOCC2)c2ccccc2F)cc1	2%	6%
107	CN(Cc1ccccc1)C(=O)c1[nH]cnc1C(=O)N[C@@H](Cc1ccccc1)C(=O)OC(C)(C)C	0%	-3%
108	CCCCN(C(=O)Cc1cccc(F)c1)c1c(N)n(CCC)c(=O)[nH]c1=O	7%	18%
109	COc1ccc(NC(=S)NC2CCCCC2)cn1	5%	0%
